# T cruzi inh = blocks replication of Trypanosoma cruzi; T. cruzi beta-gal in NIH3T3, luminescence, 90 h; inhibition, % (concentration not given with the values); 300,000 tested, 1.4% active; AID 1885;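 active means mean inhibition across valid replicates above about 55%, limit read from the data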;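 further: signal also drops with host cell toxicity which is not excluded here; 0% = plate median of DMSO wells and 100% = zero luminescence signal; higher percent means less beta-gal luminescence so fewer parasites; stock transfer was 50 nL into about 50 µL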
# FGF22 binding = binders of recombinant human FGF22 by thermal shift | Q9HCT0 | SYPRO orange fluorescence; percent of sucrose octasulfate shift, DMSO zero | calls only at 9.99 µM | 340,000 tested, 1.5% active | AID 651658;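 active means melting point raised past a set limit in the mean and every replicate; three in four hits are not shown here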
# Target sequence (Q9HCT0 whole entry, looked up): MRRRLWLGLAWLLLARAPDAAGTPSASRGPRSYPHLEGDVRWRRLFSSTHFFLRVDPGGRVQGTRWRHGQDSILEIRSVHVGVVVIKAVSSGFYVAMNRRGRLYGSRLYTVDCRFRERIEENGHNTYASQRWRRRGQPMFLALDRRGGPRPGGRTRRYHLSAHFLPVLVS
# Bfl-1 A1 inh = inhibitors of the anti-apoptotic protein A1, read as caspase activation; MEF A1-2A-BIM cells, Caspase-Glo 3/7 luminescence, 3 h; percent of clofoctol response, vehicle zero; caspase activation, % (concentration not given with the values); 330,000 tested, 0.066% active;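 active means over half of replicate activation scores above 10%, or exactly half above 10 with the replicate mean above 10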;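 further: wells of about 30 µL received 50 nL stock; many hits fall short of the cut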
# Ecoli growth = E. coli growth inhibition | 330,000 tested, 0.21% active | OD600 absorbance (no concentration beside the values) | AID 1053175 | Escherichia coli growth, OD600, 23 h; stronger effect = lower value;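 active means OD600 absorbance below the run mean of sample wells minus 3.6 SD, in any replicate, cut at about 0.56 in these data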;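 further: stock transfer was 300 nL into about 60 µL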
# UCH37 inh = human UCH37 deubiquitinating enzyme inhibition | 330,000 tested, 0.33% active | AID 588478 | inhibition, % (no concentration beside the values) | purified proteasome/UCH37, Ub-AMC cleavage fluorescence;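 active means mean of two replicates above 20%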;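 further: 0% = compound-free wells with enzyme and 100% = wells lacking proteasome; stock transfer was 100 nL into about 20 µL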
# Target sequence (Q9Y5K5 whole entry, looked up): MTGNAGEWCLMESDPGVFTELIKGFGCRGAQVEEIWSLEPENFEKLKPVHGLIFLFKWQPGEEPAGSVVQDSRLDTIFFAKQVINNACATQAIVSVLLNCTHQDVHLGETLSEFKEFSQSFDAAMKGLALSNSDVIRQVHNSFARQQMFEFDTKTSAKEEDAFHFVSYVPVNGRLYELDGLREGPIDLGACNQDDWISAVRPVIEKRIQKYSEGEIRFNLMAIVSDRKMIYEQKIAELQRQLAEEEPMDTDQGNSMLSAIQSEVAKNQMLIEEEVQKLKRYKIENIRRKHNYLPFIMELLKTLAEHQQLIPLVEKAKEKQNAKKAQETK
#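 system = Proteasome-associated human UCH37 deubiquitinase | amount = 0.15 nM proteasome as dispensed | medium = pH 7.4 Tris-HCl (50 mM) with ovalbumin, ATP-MgCl2, DTT | incubation = 30 min preincubation with enzyme, 25 min cleavage at room temperature | detection = AMC fluorescence 355/460 nm | read-out basis = percent inhibition | controls = no-proteasome and no-compound wells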
# Beta apoptosis = beta cell apoptosis inhibition. INS-1E cytokine-induced death, ATP luminescence, 48 h; percent of positive-control rescue, neutral wells zero. protection from apoptosis, % (test concentration not listed). AID 435005. 300,000 tested, 0.8% active;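 active means all replicates at 75% or more, or half of them and the mean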;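 further: 0% = cytokine-treated negative control wells and 100% = positive control rescue; higher means more ATP so stronger rescue from cytokine killing; wells of about 40 µL received 100 nL stock; the first replicate is given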
# Ecoli rRNA inh = inhibitors of bacterial rRNA selective over humanized ribosomes; GFP signal change (wild-type ribosome), % (no concentration beside the values); 350,000 tested, 1.6% active; AID 720706; E. coli WT GFP vs humanized-ribosome RFP mutants, fluorescence, 24 h; stronger effect = lower value; DMSO median 0, no signal -100;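 active means significant combined selectivity score with lowered wild-type GFP, culture density cut under 30%, mutant RFP and density less affected; inactive means any of these conditions unmet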; further: one replicate is shown; some compounds called inactive have numbers as strong as hits
# AF4-AF9 inh = blocks AF4 peptide binding to human AF9. AlphaScreen, biotin-AF4 peptide binding to FLAG-AF9. inhibition, % at 10 µM. 350,000 tested, 0.47% active. AID 651704;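 active means every replicate reaching a set inhibition limit, whatever the replicate mean, cut at about 25% in these data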;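 further: 0% = plate neutral control median and 100% = total signal loss; the record names both 10 and 1 µM as test concentration; the first replicate is given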
# Target sequence (P42568 whole entry, looked up): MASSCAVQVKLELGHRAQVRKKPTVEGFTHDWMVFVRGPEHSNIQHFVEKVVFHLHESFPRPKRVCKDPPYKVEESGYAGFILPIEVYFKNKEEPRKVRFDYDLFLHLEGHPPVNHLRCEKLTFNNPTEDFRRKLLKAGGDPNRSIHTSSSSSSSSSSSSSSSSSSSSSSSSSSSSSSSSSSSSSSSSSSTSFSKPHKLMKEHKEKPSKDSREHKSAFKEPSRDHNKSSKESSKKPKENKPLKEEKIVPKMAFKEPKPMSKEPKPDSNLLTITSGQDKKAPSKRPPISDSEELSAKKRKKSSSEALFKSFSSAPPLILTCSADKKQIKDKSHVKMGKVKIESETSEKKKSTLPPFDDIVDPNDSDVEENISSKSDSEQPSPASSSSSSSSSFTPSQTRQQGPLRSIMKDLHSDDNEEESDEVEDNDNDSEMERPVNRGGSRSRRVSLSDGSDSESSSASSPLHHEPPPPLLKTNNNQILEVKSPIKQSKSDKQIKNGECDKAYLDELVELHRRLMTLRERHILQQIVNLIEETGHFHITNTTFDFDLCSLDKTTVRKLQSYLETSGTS
# Ecoli rRNA inh OD600 = recorded beside Ecoli rRNA inh, whose call it bears; OD600 change, %; measured here: OD600 growth;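 optical density of the mix in the first replicate; 0 = DMSO median and -100 = no signal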
# Ecoli rRNA inh RFP = recorded beside Ecoli rRNA inh, whose call it bears; RFP signal change, %; measured here: RFP humanized mutant strains;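 first replicate; 0 = DMSO median and -100 = no signal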
# * = called active by the depositor; i = inactive; . = no result given; + = active, no number.
entry	molecule	UCH37 inh	T cruzi inh	AF4-AF9 inh	Bfl-1 A1 inh	Ecoli growth	Ecoli rRNA inh OD600	Ecoli rRNA inh	Ecoli rRNA inh RFP	FGF22 binding	Beta apoptosis
1	O=C(CSc1nc(O)c(Cc2ccccc2)c(=O)n1-c1ccccc1)N1CCOCC1	-1.6	-6	.	1.4	0.69	10	10	0.4	.	-1
2	O=C(CNc1ccccc1OC(F)F)N1CCc2ccccc21	1.8	10	-0.2	0.1	0.71	14	19	-0.3	+	.
3	CC(=O)c1cccc(NC(=O)C(C)OC(=O)CCCN=C2NS(=O)(=O)c3ccccc32)c1 (centres undefined)	2.1	-9	1.1	-0.2	0.7	2	4	-0.5	i	-9
4	COCc1ccc(C(=O)NC2CCCN(Cc3ccccc3F)C2)o1 (centres undefined)	0.9	10	-2.2	-0.2	0.69	.	.	.	i	0
5	C[Si](C)(C)n1ccnc1	0.8	-2	-1.5	-0.8	.	-1	5	0.1	i	-2
6	Cc1ccc(CNC(=O)c2ccc(F)c(S(=O)(=O)N3CCOCC3)c2)cc1	-0.5	.	8.7	.	0.68	10	4	-1.9	i	.
7	CC(C)(C)/C(O)=C/c1nc2ccccc2oc1=O	-0.7	-28	-0.8	-0.2	0.73	12	0	3.7	i	-14
8	Cc1ccsc1C(=O)NCCc1ccco1	2.5	.	-1.5	-3.2	0.7	7	2	-2.3	i	-6
9	COc1ccc(NC(=S)N2CCC(C(=O)c3ccc(OC)cc3)CC2)cc1	5.3	-1	4.7	-0.4	0.66	-23	-15	-0.4	i	1
10	O=C(/C=C/Nc1ccc(S(=O)(=O)Nc2cnc3ccccc3n2)cc1)c1cccnc1	9.3	9	-6.9	-0.2	0.64	-8	-8	0.4	i	47
11	COc1ccc(Cc2nnc(NC(=O)CSc3ccc(C)cc3)s2)cc1OC	0.0	-28	.	0.2	0.68	.	.	.	.	-9
12	CN[C@H]1CCc2cc(OC)c(OC)c(OC)c2-c2ccc(N(C)CC(OC)OC)c(=O)cc21	6.2	17	9.5	0.6	0.68	24	13	1.5	i	10
13	COC(=O)CNC(=O)COC(=O)/C=C/c1cccs1	6.8	-2	0.0	-1.1	0.67	5	15	-1.0	i	-12
14	O=C(OCc1nc2ccc(Cl)cc2n1CCO)c1ccc(O)cc1	3.3	-3	4.5	0.0	0.71	0	-4	4.5	i	-8
15	CCOC(=O)c1cc(-c2ccc(/C=C3/C(=O)N(c4ccc(C(=O)O)cc4)N=C3C)o2)ccc1Cl	.	-20	9.6	0.3	.	13	11	-1.4	i	-16
16	COc1ccc2c(c1)c(C(=O)N/N=C/c1ccc(Br)cc1)c(C)n2C	.	10	1.1	-0.2	.	4	-4	3.4	i	.
17	CCOC(=O)c1ccc(NC(=O)Nc2c(C)nn(C)c2C)cc1	6.2	4	.	0.3	0.73	.	.	.	.	-1
18	Cc1cc(C)n(CC2CC(=O)N(c3ccccc3)C2=O)n1 (centres undefined)	2.6	.	-1.1	-0.5	0.65	5	7	-1.9	i	-1
19	CCc1ccc(NC(=O)COc2ccc3c(c2)OCO3)cc1	4.2	0	1.2	-0.1	0.69	-11	2	1.2	i	1
20	COc1ccccc1NC(=S)NCCc1ccccc1	2.6	9	.	2.4	0.71	.	.	.	.	-4
21	NNC(=S)Nc1cccc(-c2n[nH]c(=S)o2)c1	-1.9	4	.	-1.2	0.66	-10	-6	-2.6	i	-6
22	COc1c(C)cccc1C(=O)Nc1cc(-c2nn3c(C)nnc3s2)ccc1C	-1.3	-4	2.0	-0.7	0.72	2	9	-2.1	i	5
23	O=C(O)/C=C\c1cccc(-n2nnnc2SCc2ccccc2F)c1	4.5	7	-1.7	0.6	0.66	-8	-11	2.7	i	-10
24	O=S(=O)(Nc1ccccc1N1CCCCC1)c1ccccc1	2.2	10	0.7	0.2	0.66	-43	-8	-5.3	i	3
25	O=C(/C=C/c1cccc([N+](=O)[O-])c1)NCCSCc1cccc(Cl)c1	1.8	26	.	1.3	0.67	.	.	.	.	2
26	CC1CCN(S(=O)(=O)c2ccc(NC(=O)[C@@H]3CCCC[C@@H]3C(=O)O)cc2)CC1	4.1	-3	-1.0	-0.2	0.7	3	-1	-0.5	i	4
27	CCN1CCN(C(=O)Cn2ncc3ccsc3c2=O)CC1	1.1	-2	-3.1	-0.4	0.79	12	8	1.0	i	6
28	CCn1c(N2CCN(C(=O)/C=C/c3ccccc3)CC2)nc2ccccc21	-1.0	7	0.6	-0.3	0.68	-29	-20	-4.6	i	4
29	CCCc1ccc(OCc2ccc(C(=O)Nc3cccc(C)n3)o2)c(OC)c1	-1.9	31	0.0	-0.1	0.69	7	0	2.4	i	-7
30	Nc1ccc(S(N)(=O)=O)cc1N	.	-8	6.2	0.6	.	-2	-7	-5.8	i	1

# With a hit mark in FGF22 binding, of those listed so far:
cpd	Molecule	UCH37 inh	AF4-AF9 inh	Ecoli rRNA inh OD600	Ecoli rRNA inh	Ecoli rRNA inh RFP	FGF22 binding
2	O=C(CNc1ccccc1OC(F)F)N1CCc2ccccc21	1.8	-0.2	14	19	-0.3	+

# The main list resumes; the two compounds before the break are reprinted first.
entry	molecule	UCH37 inh	T cruzi inh	AF4-AF9 inh	Bfl-1 A1 inh	Ecoli growth	Ecoli rRNA inh OD600	Ecoli rRNA inh	Ecoli rRNA inh RFP	FGF22 binding	Beta apoptosis
29	CCCc1ccc(OCc2ccc(C(=O)Nc3cccc(C)n3)o2)c(OC)c1	-1.9	31	0.0	-0.1	0.69	7	0	2.4	i	-7
30	Nc1ccc(S(N)(=O)=O)cc1N	.	-8	6.2	0.6	.	-2	-7	-5.8	i	1
31	Cc1ccccc1OCCN1C(=O)NC2(CCCc3ccccc32)C1=O (centres undefined)	4.0	28	.	0.2	0.81	.	.	.	.	-1
32	Cc1ccc(COc2ccc(CNCCCN3CCCCCC3=O)cc2)cc1	2.7	32	14	0.3	0.65	-1	1	2.1	i	-8
33	N#Cc1ccccc1OCC(=O)NC(=O)NCc1ccco1	-12	18	5.0	-0.6	0.69	4	7	3.6	i	3
34	Cc1ccc(NS(=O)(=O)c2ccc(F)cc2)nc1	-35	-16	5.7	0.2	0.68	5	7	0.1	i	-1
35	O=C(NCCc1ccc(F)cc1)C(=O)NCC1CCCN1S(=O)(=O)c1cccs1 (centres undefined)	-0.6	6	-0.4	0.2	0.58	-8	-9	3.3	i	.
36	CCNC(=S)NNC(=S)NCc1ccccc1	0.9	-19	5.2	-0.2	0.72	14	16	-7.8	i	6
37	Cc1cc2nc3n(c2cc1C)CC1CC(C(=O)NCc2cccc(Br)c2)N(C)C31 (centres undefined)	-1.4	11	2.6	-0.3	0.68	-2	-10	1.0	i	1
38	CCSc1nnc(NC(=O)C2CCCN(S(=O)(=O)c3cnc[nH]3)C2)s1 (centres undefined)	3.8	0	-11	0.7	0.7	0	-1	-2.1	i	.
39	CCC(=O)c1ccc(OCC(=O)OC(C)C(=O)N2CCc3ccccc32)cc1 (centres undefined)	3.5	-15	-13	0.0	0.66	10	4	-1.0	i	-6
40	OC1CCN(C(c2ccc3ncccc3c2)c2nnnn2C2CCCCC2)CC1 (centres undefined)	0.5	3	-8.1	0.0	0.7	8	-3	-4.7	i	1
41	C=Cn1cc[n+](CC(=O)c2ccc(C)cc2)c1	2.8	-16	-1.2	0.7	0.74	-24	-10	2.0	i	2
42	Cc1c(C(=O)N/N=C/c2cccc(O)c2)nnn1-c1nonc1N	.	4	-2.2	0.2	.	-10	-1	-0.3	i	-1
43	CN(C)C=NC(=O)/C(C#N)=C1\CCc2ccccc2N1	9.3	-1	.	0.1	0.72	.	.	.	.	-10
44	COc1ccc(CN(C)C(=O)c2cccc(S(=O)(=O)N3CCCc4ccccc43)c2)c(OC)c1OC	-0.3	.	5.8	.	0.67	-28	-32	-1.7	i	.
45	COc1ccccc1NC(=O)C(C)OC(=O)CCCN=C1NS(=O)(=O)c2ccccc21 (centres undefined)	3.8	-10	6.3	-1.0	0.69	-7	-5	2.9	i	-1
46	COc1cc(C(C)=O)ccc1OCC(=O)Nc1cc(Cl)ccc1-n1cncn1	0.2	.	-2.0	.	0.69	-1	6	-0.5	i	.
47	C=CCOn1c(=O)c(-c2ccc(C)cc2)[n+]([O-])c2ccccc21	6.6	-15	3.9	-0.7	0.7	12	14	2.6	i	0
48	COc1ccc(NC(=O)COc2nc(N(C)C)nc(N(C)C)n2)cc1	1.9	0	.	1.0	0.71	.	.	.	.	5
49	COCCCNC(=S)NNC(=O)c1ccc(S(=O)(=O)N2CCC(C)CC2)cc1	3.9	5	2.0	0.1	0.66	-13	-16	-1.3	i	5
50	COCCSc1ccccc1C(=O)NCC1CCCO1 (centres undefined)	3.1	42	-3.0	0.6	0.72	4	15	2.1	i	.
51	O=C1CC[C@@H](CN(Cc2ccccc2)Cc2cn[nH]c2-c2cc3ccccc3o2)N1	.	10	4.1	-0.3	.	-14*	-24*	-2.9*	i	-6
52	Cc1ccc2nc(Nc3nc(CSc4nnnn4-c4ccccc4)cc(=O)[nH]3)nc(C)c2c1	4.9	35	.	.	0.74	.	.	.	.	6
53	CCCNC(=O)c1nc(C)n(-c2cc(Cl)ccc2Cl)n1	3.8	-3	-1.0	0.2	0.66	-31	-5	-1.2	i	-6
54	CCC(C(=O)Nc1ccccc1C(=O)N1CCCC1)N1C(=O)c2ccccc2C1=O (centres undefined)	3.7	-14	-17	-1.2	0.69	5	6	0.9	i	-3
55	Cc1cccc(NC(=O)C2c3ccccc3Oc3ccccc32)n1	-1.1	0	-0.9	-2.0	0.64	-34	-34	2.3	i	9
56	CC(=O)c1nn(-c2cccc(Br)c2)cc1C(=O)c1cccc2ccccc12	4.1	36	.	0.7	0.72	.	.	.	.	-5
57	CCN(CC)C(=O)COc1ccc2oc(C)c(C(=O)OC(C)C)c2c1	3.6	9	.	0.0	0.7	.	.	.	.	4
58	O=C(O)CC1(CC(=O)Nc2ccc(F)cc2F)CCCCC1	7.3	-14	-3.0	-0.7	0.68	-4	-4	1.1	i	-4
59	Cn1nc(C(F)(F)F)c(-c2cccc(C(F)(F)F)c2)c1NC(=O)c1nccnc1C(=O)O	.	-7	-3.0	-0.7	.	1	8	-0.5	i	-4
60	CCOc1ccc2[nH]c(=O)c(CN(CCCO)S(=O)(=O)c3ccc(F)cc3)cc2c1	-91	2	-2.0	-0.1	0.69	-13	-10	3.7	i	5

# Additional structures follow.
entry	molecule	UCH37 inh	T cruzi inh	AF4-AF9 inh	Bfl-1 A1 inh	Ecoli growth	Ecoli rRNA inh OD600	Ecoli rRNA inh	Ecoli rRNA inh RFP	FGF22 binding	Beta apoptosis
61	O=C(Cc1ccc([N+](=O)[O-])cc1)Nc1cccc(C(=O)N2CCCC2)c1	0.2	.	-0.2	-0.5	0.58	-4	-3	-11	i	3
62	Cc1cc(OCC(=O)NNC(=O)c2cnccn2)cc(C)c1Cl	3.8	36	2.9	.	0.65	4	0	-0.4	i	.
63	COc1ccc(NC(=O)c2ccc3ncsc3c2)cc1	0.5	-3	-3.4	-3.3	0.68	11	5	0.4	i	.
64	COc1ccc([C@H]2[C@H](C(C)=O)N3N=Cc4ccccc4C3C23C(=O)OC(C)(C)OC3=O)cc1 (some centres undefined)	4.0	-3	-2.5	0.8	0.7	6	1	7.4	i	-3

# Screening results: PubChem BioAssay, several laboratories

# Not all compounds are listed; the hit share may differ from the screen's.
